High-throughput results deposited in PubChem BioAssay by National Center for Advancing Translational Sciences (NCATS).
Bst PK mod – Pyruvate Kinase; AID 361, 2006; Potency, µM; partly purified Bacillus stearothermophilus pyruvate kinase, luminescence ATP production; ribose 5-phosphate activator present at AC10; 1.2% of 51,000 active; in the data active means potency below about 11 µM; inconclusive means mostly about 12 µM to 25 µM; inactive means weaker than that;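 the screen sought inhibitors and activators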;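 note: potency is the fitted concentration of half-maximal effect; scaled between full activation by ribose 5 phosphate and full inhibition by luteolin; about four in five hits inhibit and the cells do not say which; series up to 57 µM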
TsaE inh – qHTS Assay for Inhibitors of YjeE; 0.05% of 71,000 active; purified YjeE, fluorescence polarisation of a bound ADP probe; tRNA threonylcarbamoyladenosine biosynthesis protein TsaE (Escherichia coli (strain …; Potency, µM; active = well fitted falling curve; inconclusive = weaker or top-dose-only fall, or a rising curve; inactive = flat or poorly fitted curve;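 note: top concentration of the series not given in the record; excess ADP was the control for the full effect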
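Purified YjeE (10 uM) with BODIPY Texas Red-labeled ADP probe (2 uM); compounds pin-transferred, 15 min at room temperature. Binding inhibition read as decreased fluorescence polarization; ADP titration as control.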
An asterisk follows results filed as active; i = inactive; u = inconclusive; x = not tested or not shown.

Every second line gives: Bst PK mod	TsaE inh
- Cc1ccccc1-c1nc(CS(=O)(=O)CC(=O)NCCCN2C(C)CCCC2C)c(C)o1 (centres undefined)
→ x	i
- Nc1c(NCCN2CCOCC2)c2ccccc2oc1=O
→ x	i
- Cc1ccccc1OCc1nc2ccccc2c(=O)n1NC(=O)c1ccco1
→ >11	x
- COc1cccc(C2=NO[C@@H]3C(=O)N(c4ccc5c(c4)OCCO5)C(=O)[C@H]23)c1OC
→ u	i
- CS(=O)(=O)Nc1cccc(C(=O)CC2(O)C(=O)Nc3ccccc32)c1 (centres undefined)
→ >57	i
- Cc1ccc(Cn2ncc3c(NCCCN4CCOCC4)ncnc32)cc1
→ >57	i
- Cn1c(=O)oc2cc(S(=O)(=O)NCc3ccco3)ccc21
→ x	i
- Cc1ccccc1-n1c(=O)/c(=C\c2ccco2)s/c1=C(/C#N)C(=O)Nc1ccccc1
→ >26	x
- CCN1CCCC1CNC(=O)CS(=O)(=O)Cc1nc(-c2ccccc2C)oc1C (centres undefined)
→ x	i
- Cc1nc(COC(=O)c2ccc(CO)cc2)cs1
→ >57	i
- Cc1cc(C)cc(OCc2nnc(SCC(=O)c3ccccc3)o2)c1
→ >57	i
- CS(=O)(=O)N1CCC2(CCN(C(=O)Nc3cccc(F)c3)CC2)CC1
→ x	i
- COc1cccc2[nH]c3c(N4CCCC(C)C4)ncnc3c12 (centres undefined)
→ x	i
- CCOc1ccc2c(c1)c1nnc(SCC(=O)N3CCC(C)CC3)nc1n2C
→ >57	i
- Cc1csc(SCCN2C(=O)c3ccccc3C2=O)n1
→ >57	i
- Cc1c2c(nc3nc4ccccc4n13)CCCC2=O
→ >57	i
- CCS(=O)(=O)N1Cc2ccccc2CC1C(=O)N1CCN(c2ccccc2)CC1 (centres undefined)
→ >57	i
- O=C(NCc1ccco1)c1noc2c1CCCC2
→ >57	i
- O=Nc1ccc2oc(=O)ccc2c1
→ x	i
- COc1ccc(-n2c(=O)cnc3cnc(Oc4ccccc4)nc32)cc1
→ x	i
- CC(=O)N1CCc2cc(S(=O)(=O)CCC(=O)NCc3cccs3)ccc21
→ >57	i
- COc1cc(C(=O)Oc2ccccc2)ccc1OCc1c(C)noc1C
→ >57	i
- N[C@@H](Cc1ccc(O)c(I)c1)C(=O)O
→ >26	x
- Cc1cc(=O)oc2cc(OCC(=O)NCCCN3CCOCC3)ccc12
→ >57	i
- COC(=O)[C@H](Cc1ccccc1)NC(=O)[C@]1(C)C[C@H]1[C@H](NC(=O)OCc1ccccc1)c1ccccc1
→ x	i
- COCCn1c(N)c(C(=O)OCc2ccccc2)c2nc3ccccc3nc21
→ >57	i
- O=C(CN1C(=O)c2ccccc2S1(=O)=O)NCCSC1CCCCC1
→ >57	i
- CCCCOCP(=O)(CCCC)COCCCC
→ x	i
- N=C1C(c2ccccc2)=C(O)CN1c1ccc2c(c1)OCO2
→ >57	i
- COc1ccccc1NC(=O)N1CCn2c(nc3ccccc32)C1
→ >57	i
- Cc1ccc(N2CC(C(=O)NCc3cccs3)CC2=O)cc1 (centres undefined)
→ >57	i
- CCn1c(SCC(=O)n2nc(C)cc2C)nnc1-c1ccc2c(c1)OCO2
→ >57	i
- OCC(CO)(CO)N=Cc1cc(Br)ccc1O
→ x	i
- CCOC(=O)c1c(NC(C)=O)no[n+]1[O-]
→ >57	i
- CCC(=O)N1CCN(c2nc(C)nc3sc(C)c(C)c23)CC1
→ >11	i
- CCOC(=O)CCCNC(=O)COC(=O)c1cc(C)cc(C)c1
→ >57	i
- CCCCNC1=C(Br)C(=O)CC(C)(C)C1
→ >26	x
- Cc1ccsc1/C=c1\sc2ncnn2c1=O
→ >57	i
- Cc1ccc(CCNC(=O)C2CCCN(S(=O)(=O)c3cccc4nsnc34)C2)cc1 (centres undefined)
→ >57	i
- CC(=O)c1cccc(NC(=O)Nc2cccnc2)c1
→ >57	i
- O=C1c2ccccc2C(=O)N1CCCn1nnc(-c2ccc(N3CCOCC3)cc2)n1
→ >57	i
- C=CCN(C(=O)c1ccccc1)c1ccc(OC)cc1
→ >57	i
- O=S(=O)(c1ccc(-c2cn3ccccc3n2)cc1)N1CCOCC1
→ x	i
- Cc1noc(C)c1C(=O)N1CCC2(CCCN(c3ccncc3)C2)CC1
→ x	i
- Cc1ccccc1-c1noc(-c2ccc(O)cc2)n1
→ x	i
- COc1ccccc1C(=O)NCCN1CCN(C(=O)c2ccccc2OC)CC1
→ >57	i
- O=C1CCc2cc(S(=O)(=O)N3CCC(C(=O)Nc4nccs4)CC3)ccc2N1
→ x	i
- O=c1c(-c2ccc(F)cc2)nc2cncnc2n1Cc1ccc(F)cc1
→ x	i
- CC1CCCC(NC(=O)CN(C)S(=O)(=O)c2cccc3cccnc23)C1C (centres undefined)
→ x	i
- CC(C)OC(=O)CSc1nnc(Cc2ccccc2)n1C
→ >57	i
- N=c1c2c3c(sc2ncn1CCN1CCOCC1)CCCCC3
→ >57	i
- Nc1c(S(=O)(=O)c2cccs2)c2nc3ccccc3nc2n1CC1CCCO1 (centres undefined)
→ >57	i
- CCOc1cc(C(=O)N2CCN(c3ccccc3)CC2)cc(OCC)c1OCC
→ x	i
- CCOC(=O)C1CCCN(c2c(Nc3ccc(C)c(C)c3)c(=O)c2=O)C1 (centres undefined)
→ x	i
- Cc1cccc(C(=O)Nc2ccccc2C(=O)OCc2c(C)noc2C)c1
→ >57	i
- CCc1cc2c(CN3CCN(C)CC3)cc(=O)oc2cc1O
→ >57	i
- COc1cc(OC)cc(C(=O)Nc2ncc3c(n2)CC(C)(C)CC3=O)c1
→ >57	i
- COC(=O)COc1cc(C)cc2oc(=O)c(CC(=O)OC)c(C)c12
→ >57	i
- O=C(Cc1c[nH]c2ccccc12)NCc1ccc2c(c1)OCO2
→ >57	i
- Cc1cc(C)nc(-n2nc(C)c3c(C(F)F)cc(C)nc32)n1
→ >57	i

The listing continues.
Every second line gives: Bst PK mod	TsaE inh
- CCOC(=O)Cc1csc(NC(=O)C2CCCN(S(=O)(=O)c3cnc[nH]3)C2)n1 (centres undefined)
→ x	i
- CCOC(=O)CSc1nc(-c2ccc3c(c2)OCO3)ccc1C#N
→ 4.3*	x
- N[C@@H](Cc1ccccc1)c1nnc(SCc2ccccc2F)o1
→ >57	i
- O=C(O)CCCC(=O)Nc1ccc(N2CCCC2)cc1
→ >57	i
- COc1ccc(OC)c(NS(=O)(=O)c2ccc3c(c2)n(C)c(=O)n3C)c1
→ >57	i
- O=c1[nH]n(-c2ccccn2)c(=O)c2ccccc12
→ >57	i
- CN(C)c1ccc(CNCCC2(O)CCOC(C)(C)C2)cc1 (centres undefined)
→ >57	i
- O=C(Nc1cccnc1)c1noc2c1CCCC2
→ >57	i
- Cc1cc(NC(=O)c2ocnc2C)no1
→ >57	i
- Cc1ccccc1OCC(O)Cn1c(N2CCN(c3ccccc3)CC2)nc2c1c(=O)[nH]c(=O)n2C (centres undefined)
→ >26	x
- Cc1ccc(S(=O)(=O)N2CCC(C(=O)NCCCN3CCCCCC3)CC2)cc1
→ 10*	i
- Cn1c(NCc2ccccc2)cc(=O)n(C)c1=O
→ >57	i
- COc1ccccc1NC(=O)COc1cccc(-n2cnnn2)c1
→ >57	i
- Cc1cc(C)c2c(CC(=O)Nc3ccc(Cl)cn3)coc2c1
→ >57	i
- COc1ccc(OC)c(NC(=O)NC2(C(F)(F)F)Oc3ccccc3O2)c1
→ >57	i
- O=C(c1cc2ccccc2o1)N1CCCCCC1
→ >57	i
- CCOc1ccccc1NC(=O)N1CCCC(c2nc3c(nnn3Cc3ccc(C)cc3)c(=O)[nH]2)C1 (centres undefined)
→ >57	i
- COCCN(C(=O)Cn1nnc2ccccc21)C(C(=O)NC1CCCC1)c1cc(OC)ccc1OC (centres undefined)
→ >57	i
- CCOC(=O)c1c(NC(=O)c2ccco2)sc2c1CCCCC2
→ x	i
- Cc1ccc(NCc2nnc(SCC(=O)Nc3ncc(C)s3)n2Cc2ccco2)c(C)c1
→ >57	i
- Cc1ccc(C)c(S(=O)(=O)n2cnc3ccccc32)c1
→ x	i
- Nc1nc(N2CCN(C/C=C/c3ccccc3)CC2)nc2ccccc12
→ >57	i
- Cc1ccc(NC2=NC(C(=O)Nc3ccc(C)c(C)c3)CC(=O)N2)cc1 (centres undefined)
→ x	i
- CCc1ccc(C2CC(c3ccc(F)cc3)Nc3nc(N)nn32)cc1 (centres undefined)
→ x	i
- O=C(CCCc1ccccc1)NCc1cn2ccsc2n1
→ x	i
- CCOC(=O)C1CCN(S(=O)(=O)c2cc(Br)cc3c2N(C(=O)C2CC2)CC3)CC1
→ >57	i
- O=C(CSc1nc(-c2ccco2)cc(C(F)(F)F)n1)N1CCN(Cc2ccccc2)CC1
→ x	i
- COC(=O)C1=C(C)n2nnnc2NC1c1ccc(Cl)cc1 (centres undefined)
→ >57	i
- Cn1c(Cn2c(=O)sc3ccccc32)nnc1SCC(=O)NC1CCCC1
→ x	i
- COc1ccc(C2=Nn3c(nnc3-c3cccnc3)SC2)cc1OC
→ >26	x
- CC(C)CNC(=O)C1CCN(c2ccc(S(=O)(=O)N3CCOCC3)cc2Cl)CC1
→ >57	i
- C=C(C)Cn1c(N(CCO)Cc2ccccc2)nc2c1c(=O)[nH]c(=O)n2C
→ x	i
- O=C(CCc1nc2ccccc2s1)OCC(=O)N1CCN(C(=O)c2ccco2)CC1
→ >57	i
- O=C(NCCCN1CCN(Cc2ccccc2Cl)CC1)Nc1ccccc1
→ >57	i
- COc1cc(C2C(C#N)=C(N)Oc3cc(C)n(CCN4CCOCC4)c(=O)c32)cc(OC)c1OC (centres undefined)
→ >26	x
- O=C(Nc1c(Cl)cc(Cl)cc1C(=O)NCC1CCCO1)c1ccco1 (centres undefined)
→ >57	i
- C=CCNc1nc(-c2sc(NC(=O)CC)nc2C)cs1
→ x	i
- Cc1nc(S(=O)(=O)N(C)c2ccccc2)c(C#N)c(C)c1Cl
→ x	i
- COc1cc2c(cc1OC)C(c1cccnc1)CC(=O)N2 (centres undefined)
→ x	i
- COc1cc2c(cc1OC)CN(C(=O)COc1ccc(C#N)cc1)CC2
→ >57	i
- Clc1ccc(-n2nnnc2SCc2c(-c3ccccc3)nc3sccn23)cc1
→ >57	i
- Clc1ccccc1NN(Cc1ccncc1)c1ccccc1Cl
→ x	i
- Cn1c(CC2C(=O)Nc3ccc(Br)cc32)nc2ccccc2c1=O (centres undefined)
→ >57	i
- C/C(N)=N\S(=O)(=O)c1ccc(Cl)cc1
→ >57	i
- CC(CCc1ccco1)NC(=O)Cn1ncc2c1-c1ccccc1OC2 (centres undefined)
→ x	i
- O/N=C1/CCc2nonc2/C1=N/O
→ >57	i
- CCOC(=O)CSc1nnc([C@H](C)NC(=O)OC(C)(C)C)o1
→ >57	i
- CCOC(=O)c1cc(=O)n2nc(-c3ccc(C)cc3)nc2s1
→ >57	i
- CNC(=O)[C@@H]1O[C@@H](n2cnc3c(N)ncnc32)[C@@H](O)[C@H]1O
→ x	i
- CC(C)N1C(=O)C2C(c3ccccc3O)NC(C)(C(=O)O)C2C1=O (centres undefined)
→ x	i
- O=C(Cc1ccccc1)N1CCCC1c1ccccc1 (centres undefined)
→ x	i
- Cc1cccc(NC(=O)c2sc3nc(-c4ccc(F)cc4)cn3c2C)n1
→ >57	i
- COC(=O)c1sc(NC(=O)CSc2nnc(C(C)C)n2C)nc1C
→ >57	i
- CCOC(=O)N1CCN(S(=O)(=O)c2ccc3c(c2)CCN3C(=O)C2CC2)CC1
→ >57	i
- CCCCCn1c(=S)[nH]c2ncccc2c1=O
→ >57	i
- COc1cc(O)c2c(=O)cc(-c3ccccc3)oc2c1
→ x	i
- COc1ccc(-c2cc(C(F)(F)F)n3nc(C(=O)O)cc3n2)cc1OC
→ x	i
- COc1ccccc1OCc1ccc(C(=O)NCc2ccco2)o1
→ >57	i
- Cc1ccccc1NC(=O)c1ccccc1NC(=O)c1ccco1
→ >57	i
- CCOC(=O)Nc1sc(=S)n(C)c1C
→ >57	i

2 compounds picked at random from the list so far:
Every second line gives: Bst PK mod	TsaE inh
- COc1cc2c(cc1OC)C(c1cccnc1)CC(=O)N2 (centres undefined)
→ x	i
- COc1cccc(C2=NO[C@@H]3C(=O)N(c4ccc5c(c4)OCCO5)C(=O)[C@H]23)c1OC
→ u	i

Later entries:
Every second line gives: Bst PK mod	TsaE inh
- CC(NC(=O)c1cncc(Br)c1)c1ccc(S(N)(=O)=O)cc1 (centres undefined)
→ >57	i
- CCOC(=O)c1c(NC(=O)c2cc(C3CC3)on2)sc2c1CCCC2
→ x	i
- CCC1CCCCN1C(=O)CSc1nnc(CNC(=O)c2cc(OC)c(OC)c(OC)c2)o1 (centres undefined)
→ >57	i
- COc1cc(-c2nnc(SCc3cccnc3)n2C)cc(OC)c1O
→ >57	i
- CN(C)CCCOC(=O)c1cc2ccccc2o1
→ >57	i
- COCCn1c(=S)[nH]c2ncccc2c1=O
→ >57	i
- CCCCn1nnc(NC(=O)c2ccc(-c3ccccc3)cc2)n1
→ >57	i
- CCOC(=O)C1CCN(c2nc3cc(OC)ccc3cc2C#N)CC1
→ >57	i
- COc1cc(OC)c(S(=O)(=O)N2CCCCC2)cc1S(=O)(=O)N1CCCCC1
→ >57	i

Entries of single compounds, looked up by structure.
COc1cc(OC)c(S(=O)(=O)N2CCCCC2)cc1S(=O)(=O)N1CCCCC1 as listed: Bst PK mod: >57; TsaE inh: i
CN(C)CCCOC(=O)c1cc2ccccc2o1 as listed: Bst PK mod: >57; TsaE inh: i
COCCn1c(=S)[nH]c2ncccc2c1=O as listed: Bst PK mod: >57; TsaE inh: i

These rows are one share of the data (hit frequency here may not be typical).
